Vaccinia mCherry – qHTS for Stage-Specific Inhibitors of Vaccinia Orthopoxvirus: mCherry Reporter Primary qHTS. hit rate 0.63% among 310,000. Potency, µM (titrated, usually from 36.5 µM), without a hit: at the highest dose activity change, negative = inhibition, most hits filed as inhibitors. Vaccinia virus mCherry reporter infection, fluorescence; about a quarter of the inactives have no number. AID 720579, 2013; active = well fitted inhibition curve with a large enough effect; inconclusive = small, poorly fitted or top-dose-only effect; inactive = no such curve, though single readings can be large or run the other way; tested in A549 cells; also: nearly all actives have a fitted effect of over 35% in size; inactives centre near -10
VACV Venus inh – qHTS for Stage-Specific Inhibitors of Vaccinia Orthopoxvirus: Venus Reporter Primary qHTS; Vaccinia virus Venus reporter expression, fluorescence; Potency, µM (doses to about 36.5 µM), for inactives: top-dose activity change, negative = inhibition, usual class: inhibitors; hit rate 0.46% among 330,000; AID 720580, 2013; active means well fitted inhibition curve with a large enough effect; inconclusive means small, poorly fitted or top-dose-only effect; inactive means no such curve, though single readings can be large or run the other way; tested in A549 cells; also: nearly all actives have a fitted effect of over 30% in size; inactives centre near -10
* marks the source's active call; other numbers are inactive results; i = inactive; ? = inconclusive; . = not tested or not shown; & = joins results of further samples; [ ] = dose if it differs, or a comment. % is scaled to controls: 0 for no effect and ±100 for the full control effect; potency is read from the fitted curve at half-maximal effect.

SMILES | Vaccinia mCherry | VACV Venus inh
CCOC(=O)N1CCN(CC(=O)Nc2nc3ccccc3s2)CC1 | -27% | -21%
Cc1ccc2nc(-c3ccc(Cl)c(NC(=O)c4ccc(Br)o4)c3)oc2c1 | -3% | -2%
CC1CN(C(=O)c2cccc(S(=O)(=O)N3CCN(c4ccccc4)CC3)c2)CC(C)O1 (stereo not given) | -19% | -7%
O=C(O)C1=C(C(=O)Nc2cc(C(F)(F)F)ccc2Cl)CCCC1 | -8% | -15%
O=c1n(Cc2ccc(F)cc2)c2ccccc2c2nc(-c3ccccc3)nn12 | -24% | -18%
O=[N+]([O-])/C=C/c1cn(Cc2ccc(F)cc2)c2ccccc12 | ? | -30%
Cc1ccc2c(CC(=O)N(CC3CCCO3)c3c(N)n(Cc4ccccc4)c(=O)[nH]c3=O)coc2c1 (stereo not given) | -12% | -26%
C=CCNC(=O)c1n[nH]c2c1CC(C(C)(C)CC)CC2 (stereo not given) | -29% | ?
CC(C)C[C@@]12C(=O)N(c3cccc(F)c3)C(=O)N1[C@H](c1ccc(Br)cc1)[C@@H]1C(=O)N(C(C)(C)C)C(=O)[C@@H]12 | -5% | -25%
C[N+]1(C)CCCC(OC(=O)C(O)(c2ccccc2)c2ccccc2)C1 (stereo not given) | -15%&-6% | -1%&-10%
COc1cc2nc(N3CCCCC3)nc(NC(C)C)c2cc1OC | -19% | ?
COc1ccc(C2C(=O)N(C3CCCCCC3)CC(=O)N2Cc2ccc(C)cc2)cc1 (stereo not given) | -7% | -8%
CCOC(=O)Cc1nn2c(=O)cc(C)nc2s1 | . | 2%
COc1ccc(-n2nc(C(=O)NCC(=O)Nc3cccc(Cl)c3)c3ccccc3c2=O)cc1OC | ? | ?
COCC(=O)OCC(=O)N1N=C(c2ccc(Cl)cc2)CC1c1ccco1 (stereo not given) | -20% | -21%
O=C(CCN1CCN(C(=O)c2ccco2)CC1)Nc1ccc(F)cc1 | . | -10%
O=C1C(=O)N(Cc2cccnc2)C(c2ccccn2)/C1=C(/O)c1ccc(F)cc1 (stereo not given) | -9% | -17%
COc1ccc(-n2c(N)c(C(=O)NCc3ccco3)c3nc4ccccc4nc32)cc1 | i | -15%
O=C(CCSCc1ccc(Cl)cc1)NCc1cccnc1 | -21% | -3%
COc1ccc(NC(=O)c2cc(S(=O)(=O)N3CCCCCC3)cn2C)c(OC)c1 | 2% | -6%
COc1ccccc1N1CCN(c2nc3c(S(=O)(=O)c4ccc(C)c(C)c4)nnn3c3ccc(Cl)cc23)CC1 | -16% | -17%
O=C(CCc1nc(-c2ccccc2F)no1)NCc1ccco1 | i | -9%
O=C(N/N=C/c1ccc[nH]1)c1cc2ccccc2cc1O | -6% | -11%
O=C(NCc1ccco1)c1ccccc1NS(=O)(=O)c1ccc(Cl)s1 | -19% | -10%
COc1ccc(COC(=O)NC(C(=O)O)c2ccccc2)cc1 (stereo not given) | i | -17%
The listing continues.
SMILES | Vaccinia mCherry | VACV Venus inh
COc1ccc(CN(C)CC(=O)Nc2cccc(S(=O)(=O)N(C)c3ccccc3)c2)c(OC)c1 | -2% | -19%
Cc1cc(F)ccc1NC(=O)C1CCN(C(=O)Nc2ccccc2)CC1 | -14% | -6%
Cc1nonc1OCCNCCNc1ccc([N+](=O)[O-])c2cccnc12 | -5% | -13%
CCOc1ccccc1NC(=O)CSc1nnc2ccc(-c3ccncc3)nn12 | -5% | -11%
COCCNc1nc(NCCOc2ccccc2Cl)c2sc(-c3ccccc3)cc2n1 | -26% | ?
CCOC(=O)c1cc2sc(C)cc2n1C(C)C(=O)OCC (stereo not given) | -9% | -4%
Cc1nnc(NC(=O)CSc2nc3ccccc3[nH]2)s1 | i | 2%
CC(C)CN1CCNC(=O)C1CC(=O)N(C)CC1CCOCC1 (stereo not given) | i | -15%
Cc1ccc(C(=O)N[C@H](C(=O)OCc2nnc(-c3ccccc3)o2)C(C)C)cc1 | -3% | -14%
CCOc1cc(C2c3c(-c4ccccc4O)n[nH]c3C(=O)N2CCc2ccccc2)ccc1O (stereo not given) | -17% | -19%
CC[N+]1(C)CCCC(OC(=O)C(O)(c2ccccc2)c2ccccc2)C1 (stereo not given) | -16% | -2%&-9%
Nc1[nH]c(C(=O)c2ccccc2)c(-c2ccccc2Br)c1C(=O)NCCc1ccc(Cl)cc1Cl | -8% | -23%
CC1=C(C)/C(=N\OS(=O)(=O)c2ccc(C)cc2)C=CC1=O | -8% | -15%
CCCS(=O)(=O)NC(=O)C1(C)CCN(C(=O)c2ccc(SC(F)(F)F)cc2)C1 (stereo not given) | 2% | -7%
Cc1cc(C)cc(NC(=O)CCCc2nnc3n(CC(C)C)c(=O)c4sccc4n23)c1 | -8% | -10%
CCC(C)(C)NC(=O)C(c1cccc(OC)c1OC)N(CC(C)C)C(=O)CCC(=O)Nc1cc(C)on1 (stereo not given) | i | -6%
COc1ccc(Cc2noc(CN3CCN(Cc4csc(C)n4)CC3)n2)cc1OC | -25% | -17%
CCS(=O)(=O)Nc1ccc(C2=NN(C(=O)c3ccco3)C(c3ccco3)C2)cc1 (stereo not given) | -16% | ?
CN(NC(=O)c1ccccc1)C1=NS(=O)(=O)c2ccccc21 | i | 2%
NC(=O)N/N=C/CCc1ccccc1 | i[7.34 µM] | 0%[7.34 µM]
COc1ccc(C(C)(NC(C)=O)c2nc(-c3ccccc3OC)cs2)cc1 (stereo not given) | -13% | -1%
COCCn1c(=S)[nH]c2cc(C(=O)N3CCN(C4CCCCC4)CC3)ccc2c1=O | ? | -21%
CC(C)Oc1cc(F)ccc1-c1cc(C(=O)Nc2cccc(Cl)c2)[nH]n1 | -4% | -1%
CCOc1ccc(N/N=C(/C#N)C(N)=O)cc1 | -9% | -4%
O=C(NCc1cccc(C(F)(F)F)c1)c1cccc(S(=O)(=O)NCc2ccccc2)c1 | -18% | ?
Later entries:
SMILES | Vaccinia mCherry | VACV Venus inh
CN(CC(=O)Nc1ccccc1Cl)C(=O)Cn1nnc(-c2ccc(F)cc2)n1 | -22% | ?
COc1ccc(NC(=O)c2ccccc2NC(=O)CSc2ccccc2)cc1 | i | -16%
Cc1ccccc1Cn1nc(C)c(NC(=O)c2cc3n(n2)C(C(F)F)CC(C(F)F)N3)c1C (stereo not given) | . | -17%
O=C(NCCC(=O)N1O[C@@H]2C=C[C@H]1C2)OCC1c2ccccc2-c2ccccc21 | i | -4%
S=c1[nH]nc(-c2ccccc2Cl)n1Cc1ccccc1 | -7% | -1%
COc1cccc(/C=C2\CCC(C3CCCC3)C2=O)c1OC (stereo not given) | 0% | -11%
CC(C)(C)Cc1nnc(NC(=O)CCC2CCCCC2)s1 | -22% | -20%
COc1ccc(OC)c([C@@H]2OCCC=C[C@H]2C)c1 | ? | -15%
CC(=O)Nc1cccc(C(=O)NCC2(N3CCCCC3)CCCCC2)c1 | -8% | -7%
CCCN1CCN(CCNC(=O)Nc2cc(Cl)c(OC)cc2OC)CC1 | -12% | -5%
COc1ccc(Cn2ccc3nc(C)c(C(=O)N4CCN(c5ccc(F)cc5)CC4)cc3c2=O)cc1 | -22% | -18%
CCC1CN(C(=O)N2CCC(C(=O)NCc3cccs3)CC2)c2cc(C)ccc2O1 (stereo not given) | 0% | -16%
COC(=O)C(=O)N1CC2(C)CNCC(C)(C1)C2=O | i | -13%
COc1ccc(C2CC(=O)Oc3cc(C)c(Cl)cc32)cc1 (stereo not given) | -13% | -1%
CC1(c2nnc(-c3ccc(Cl)cc3)o2)CC(c2ccncc2)=NO1 (stereo not given) | 2% | -5%
CCOC(=O)NC(=O)C(=CNc1cccc(OC)c1)C(=O)NC(=O)OCC | i | -1%
CCOc1ccccc1CNC(=O)C1CCN(S(=O)(=O)c2ccc3c(ccn3C)c2)CC1 | -12% | -10%
CN(C(=O)c1ccccc1OCc1ccc(F)cc1)c1c(N)n(Cc2ccccc2)c(=O)[nH]c1=O | -20% | -12%
CN(CC(=O)Nc1ccc(F)cc1)CC(=O)Nc1ccc(F)c(F)c1F | -8% | -11%
Cc1cccc(NC(=S)N=Nc2c(O)n(C)c3ccc(S(=O)(=O)N4CCOCC4)cc23)c1 | -7% | -16%
CCOC(=O)N1CCN(C(=O)c2ccc(S(=O)(=O)Nc3ccc(C)cc3)cc2)CC1 | -7% | -18%
CS(=O)(=O)NCc1ccc(C(=O)O)cc1 | -7% | -7%
O=C(Nc1ccncc1)c1ccc(F)cc1 | i | -12%
C[C@@H]1CN([C@H](C)CO)C(=O)c2cc(Br)cnc2O[C@H]1CN(C)C(=O)CC1CC1 | -8% | -3%
Cc1cc(C)c2nc(/N=C(\N)NC(=O)c3ccccc3)nc(C)c2c1 | -16% | -10%

Compounds above with an aryl thioether with sulfur outside any ring:
SMILES | Vaccinia mCherry | VACV Venus inh
CCOc1ccccc1NC(=O)CSc1nnc2ccc(-c3ccncc3)nn12 | -5% | -11%
Cc1nnc(NC(=O)CSc2nc3ccccc3[nH]2)s1 | i | 2%
CCCS(=O)(=O)NC(=O)C1(C)CCN(C(=O)c2ccc(SC(F)(F)F)cc2)C1 (stereo not given) | 2% | -7%
COc1ccc(NC(=O)c2ccccc2NC(=O)CSc2ccccc2)cc1 | i | -16%

Already shown: entries from further up.
SMILES | Vaccinia mCherry | VACV Venus inh
O=C(Nc1ccncc1)c1ccc(F)cc1 | i | -12%
C[C@@H]1CN([C@H](C)CO)C(=O)c2cc(Br)cnc2O[C@H]1CN(C)C(=O)CC1CC1 | -8% | -3%
Cc1cc(C)c2nc(/N=C(\N)NC(=O)c3ccccc3)nc(C)c2c1 | -16% | -10%

Grouped by structure, the entries above with two or more sulfur atoms
SMILES | Vaccinia mCherry | VACV Venus inh
O=C(NCc1ccco1)c1ccccc1NS(=O)(=O)c1ccc(Cl)s1 | -19% | -10%
Cc1nnc(NC(=O)CSc2nc3ccccc3[nH]2)s1 | i | 2%
CCCS(=O)(=O)NC(=O)C1(C)CCN(C(=O)c2ccc(SC(F)(F)F)cc2)C1 (stereo not given) | 2% | -7%
Cc1cccc(NC(=S)N=Nc2c(O)n(C)c3ccc(S(=O)(=O)N4CCOCC4)cc23)c1 | -7% | -16%

(continued)
SMILES | Vaccinia mCherry | VACV Venus inh
CC(=O)OCC1OC(n2c(-c3ccc(Cl)cc3)ccc(C#N)c2=S)C(OC(C)=O)C(OC(C)=O)C1OC(C)=O (stereo not given) | i | -6%
CC(C)[C@@H]1NC(=O)N(c2ccc(Oc3ccccc3)cc2)C1=O | . | -27%
O=C(Nc1ccccc1C(=O)N1CCN(Cc2ccccc2)CC1)c1ccccn1 | . | -34%
COc1ccccc1C(=O)NC(C)c1nc2ccccc2[nH]1 (stereo not given) | -24% | -18%
CCOC(=O)C(C)Oc1cccc2c(=O)n(CC(=O)N3CCCc4ccccc43)ccc12 (stereo not given) | i | -20%
COC(=O)c1ccc(CSc2nnc3c(n2)[nH]c2ccccc23)cc1 | -4% | -4%
CC(C)(C)n1nnnc1C(c1cccs1)N1CCN(C(=O)c2ccco2)CC1 (stereo not given) | -11% | -9%
CCC(=NCCOc1ccc(Cl)cc1)c1c(O)n(C)c(=O)n(C)c1=O | -26% | -17%
COc1cc(-c2nnc(NC(=O)CCS(=O)(=O)c3ccccc3)o2)cc(OC)c1OC | 3.5µM* | 5.6µM*
CN(CCc1ccccn1)C1CC(=O)N(c2ccc(Cl)cc2)C1=O (stereo not given) | . | -24%
Cn1c(=O)[nH]c(=O)c2c1nc(N1CCCC1)n2CCO | -13% | -12%
O=C(Nc1c(Cl)cccc1Cl)c1ccc(-c2ccccc2)cc1 | -1% | -21%
COc1cc(NS(=O)(=O)c2ccc(NS(=O)(=O)c3ccc(C)cc3)cc2)nc(OC)n1 | 5% | -4%
COc1cc2c(C(F)(F)F)c(-c3ccsc3)oc(=O)c2cc1OC | i | -12%
Cc1sc(NC(=O)CN(Cc2ccc(F)cc2)C(=O)C(C)C)c(C(N)=O)c1C | -2% | -4%
[O-]c1n[n+](-c2ccc(Cl)cc2Cl)cc2ccccc12 | -19% | -8%
OC(C#CCN1CCCCCC1)(c1ccccc1)c1cccnc1 (stereo not given) | -9% | -8%
COC(=O)c1ccc(NC(=O)COC(=O)c2cccc3c(=O)c(C)c(-c4ccccc4)oc23)cc1 | i | -7%
COc1ccc(NC(=O)CN2C(=O)CCc3cc(S(=O)(=O)N4CCOCC4)ccc32)c(OC)c1 | -14% | -5%
N=c1sccn1CC(=O)Nc1ccccc1Sc1ccccc1 | -11% | -16%
C=CCSc1nnc(-c2ccncc2)n1-c1ccc(OCC)cc1 | i | 0%
Cc1ccc(NC(=O)/C(C#N)=C/c2ccc(Sc3nc(C)cc(C)n3)o2)cc1 | -1% | -11%
O=C(C1CCC(CNc2nc(=S)[nH]c3ccccc23)CC1)N1CCN(c2ccccn2)CC1 (stereo not given) | -15% | -15%
CCc1nc2ccc(C(=O)NCCN3CCNC3=O)cn2c1N(CC)CCOC | 4% | 1%
C=CCN(CC=C)S(=O)(=O)c1ccc2nsnc2c1 | i | -14%
Additional compounds:
SMILES | Vaccinia mCherry | VACV Venus inh
Cn1cnnc1SCC(=O)Nc1ccc2c(c1)CCC2 | -6% | 0%
COC(=O)c1cc(OC)c(OC)cc1NC(=O)c1ccc2c(c1)CCN2S(C)(=O)=O | -6% | -10%
COc1ccc(C(=O)N(Cc2cc(OC)c(OC)c(OC)c2)c2ccccn2)cc1 | -13% | 6%
CCC/C(=N\NC(=O)c1ccc(CSc2nncn2C)cc1)c1ccccc1 | i | -13%
COC(=O)c1cc2oc3ccccc3c2n1Cc1cc(C)ccc1C | -28% | -25%
CCCOc1ccc(C2CC(=O)Nc3c2c(=O)n(C)c(=O)n3C)cc1OC (stereo not given) | -2% | 3%
